# Compound activity (PubChem)
# D2 ag = Beta-Arrestin HTS for Positive Allosteric Modulators of the Human D2 Dopamine Receptor: Agonists. D(2) dopamine receptor (Homo sapiens), P14416. DiscoveRx PathHunter D2 beta-arrestin, luminescence, 90 min; 100% = 57 uM dopamine signal. activation, % (test concentration not listed). hit rate 0.084% among 360,000; in the data active = activation above about 40%; inconclusive = about 15% to 40%; inactive = below about 15%; note: compound concentration not given in the record; the text of the record calls up to 30% inactive
# Target sequence (P14416 whole entry, looked up): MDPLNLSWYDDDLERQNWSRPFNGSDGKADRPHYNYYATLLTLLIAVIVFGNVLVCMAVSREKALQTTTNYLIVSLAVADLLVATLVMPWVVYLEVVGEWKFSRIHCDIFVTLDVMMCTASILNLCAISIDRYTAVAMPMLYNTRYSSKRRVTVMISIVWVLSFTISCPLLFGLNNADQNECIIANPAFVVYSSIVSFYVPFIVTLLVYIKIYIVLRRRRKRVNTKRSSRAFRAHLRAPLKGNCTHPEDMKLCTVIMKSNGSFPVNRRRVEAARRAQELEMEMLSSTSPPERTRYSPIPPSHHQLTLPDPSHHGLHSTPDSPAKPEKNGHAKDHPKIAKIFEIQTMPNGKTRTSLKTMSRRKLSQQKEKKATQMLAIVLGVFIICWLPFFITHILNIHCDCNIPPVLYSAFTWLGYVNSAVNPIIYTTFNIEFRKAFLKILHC
#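 Agonist mode: compounds alone added to overnight-plated D2 PathHunter cells for 90 min at 37 C, with 57 uM final dopamine (EC100) defining full response. Beta-arrestin recruitment detected by chemiluminescent reagent, read after 1 h at ambient temperature.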
# D2 PAM = Beta-Arrestin HTS for Positive Allosteric Modulators of the Human D2 Dopamine Receptor: Potentiators | D(2) dopamine receptor (Homo sapiens), P14416 | DiscoveRx D2 beta-arrestin cells, luminescence, 90 min; 100% = 57 uM dopamine signal | potentiation, % (concentration not given with the values) | hit rate 0.23% among 360,000 | AID 624464, 2012; active = potentiation of 50% or more; inconclusive = 30% to 50%; inactive = 30% or less;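 note: compound concentration not given in the record; tested on top of an EC20 dose of dopamine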
#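 PathHunter D2 cells, attached overnight at 37 deg C, received compound in DMSO plus dopamine at EC20 (50 nM final) for 90 min at 37 deg C. Beta-arrestin recruitment was read as luminescence after 1 h with detection reagent at ambient temperature.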
# TRPML1 blocker = qHTS for Inhibitors of the Human Mucolipin Transient Receptor Potential 1 (TRPML1); Mucolipin-1 (Homo sapiens), Q9GZU1; TRPML1-inducible cells, Ca2+ dye fluorescence, FDSS; active compounds read low; inhibition of EC80 agonist-evoked calcium signal; activity change, negative = inhibition, % (test concentration not listed); hit rate 0.02% among 390,000; in the data active means activity change below about -50%; inconclusive means about -30% to -50%; inactive means above about -30%;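 note: stimulus is agonist 54-4 at its EC80 concentration; % is set by controls: 0 for no effect and ±100 for the full control effect; compound concentration not given in the record; the text of the record puts the active cut at -80%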
# Target sequence (Q9GZU1 whole entry, looked up): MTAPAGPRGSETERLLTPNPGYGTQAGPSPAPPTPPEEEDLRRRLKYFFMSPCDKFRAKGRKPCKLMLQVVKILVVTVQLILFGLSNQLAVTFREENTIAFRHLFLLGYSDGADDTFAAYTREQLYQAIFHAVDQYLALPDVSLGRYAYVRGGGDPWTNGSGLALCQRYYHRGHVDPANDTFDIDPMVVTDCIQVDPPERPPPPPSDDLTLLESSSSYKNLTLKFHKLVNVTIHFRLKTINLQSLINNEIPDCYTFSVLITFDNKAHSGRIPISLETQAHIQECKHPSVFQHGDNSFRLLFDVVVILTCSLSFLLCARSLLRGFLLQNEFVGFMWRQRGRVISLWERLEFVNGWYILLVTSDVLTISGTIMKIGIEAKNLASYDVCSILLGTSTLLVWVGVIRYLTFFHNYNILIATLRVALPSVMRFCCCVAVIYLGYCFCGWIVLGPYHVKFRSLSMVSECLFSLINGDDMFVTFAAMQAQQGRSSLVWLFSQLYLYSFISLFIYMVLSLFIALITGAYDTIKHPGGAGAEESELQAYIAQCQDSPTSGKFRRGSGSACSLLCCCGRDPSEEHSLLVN
#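 Calcium fluorescence in TRPML1-DL cells induced overnight with Tet: a 110 s read after compound pin addition, then a 110 s antagonist read after challenge with 54-4 at 4 uM final (EC80).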
# PINK1 expr mod = A Quantitative High throughput Screen to Identify Chemical Modulators of PINK1 Expression; hit rate 0.2% among 410,000; Potency, µM (titrated, usually from 76.6 µM), without a hit: at the top dose activation (PINK1 increase), actives largely listed as activators; PINK1 immunofluorescence, high-content cytometry, 24 h; active = well fitted activation curve with a large enough effect; inconclusive = small, poorly fitted or top-dose-only effect; inactive = flat fitted curve, though single readings scatter; cell line not stated here;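 note: potency is the fitted concentration of half-maximal effect; % of control where 0% means no effect; nearly all actives have a fitted effect of over 65% in size; a mitochondrial uncoupler was the plate control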
#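 PINK1 protein level read as immunofluorescence by microplate cytometer in a fixed, stained stable cell line after 24 h exposure to five compound concentrations, with CCCP as control.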
# TRPML1 agonist = qHTS for Agonists of the Human Mucolipin Transient Receptor Potential 1 (TRPML1) | TRPML1-expressing cells, Ca2+ dye fluorescence, FDSS; host cell line not named in the record; reference of the full effect not given here | AID 624414, 2012 | activation, % (concentration not given with the values) | Mucolipin-1 (Homo sapiens), Q9GZU1 | hit rate 0.12% among 410,000; in the data active = activation above about 50%; inconclusive = about 30% to 50%; inactive = below about 30%; note: 0% is about no effect; the text of the record puts the active cut at 80%
#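 In this qHTS format, compounds were pin-transferred onto Ca8-dye-loaded TRPML1-DL cells induced with Tet overnight, and intracellular Ca2+ fluorescence was recorded kinetically for 110 s after a 10 s baseline. A subsequent 4uM final 54-4 (EC80) addition followed by a second 110 s read served as the antagonist phase.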
# Six1-Eya2 blk = qHTS Assay for Inhibitors of the Six1/Eya2 Interaction; hit rate 0.56% among 360,000; activity change, % (test concentration not listed); Homeobox protein SIX1 (Homo sapiens) + Protein phosphatase EYA2 (Homo sapiens), …; AlphaScreen GST-Six1/His-Eya2 binding, biochemical; active compounds read low; control for the full effect not named in the record; in the data active = activity change below about -65%; inconclusive = about -30% to -65%; inactive = above about -30%; note: % is set by controls: 0 for no effect and ±100 for the full control effect
#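 Compounds are tested against tagged Six1 and Eya2 proteins bridged by glutathione donor and nickel acceptor beads; after a one-hour incubation at 37 °C without light, AlphaScreen emission is recorded.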
# * hit, by the source's call; ? = inconclusive; . = no result given; & = joins results of further samples; [ ] = dose if it differs, or a comment.
# Value order – D2 ag, TRPML1 agonist, PINK1 expr mod, Six1-Eya2 blk, TRPML1 blocker, D2 PAM
Oc1c(Br)cc(Br)cc1/C=N/N1CCN(Cc2ccccc2)CC1
  2.2, 1.2, 4.6%, -8, 7, -17
Cc1ccc(NC(=O)c2ccc3c(=O)n4c(nc3c2)CCC4)cc1F
  6.2, 1.2, 5.9%, -13, -26, 0
O=C(COC(=O)COc1ccc(Nc2ccccc2)cc1)NCc1ccco1
  -0.5, -0.3, -0.5%, -14, 50, 7
CCOc1cc(NC(=O)C2CCCCC2)c(OCC)cc1NC(=O)c1ccco1
  -3.1, 0.7, 25%, 0, -13, 13
CCCC(=O)N1CCC1(C)C(=O)NS(=O)(=O)c1cccc(Cl)c1 (stereo not given)
  -2.6, -0.1, -0.4%, 5, ., -4
Oc1ccc(Cl)cc1-c1cc(-c2ccccc2)n[nH]1
  -3.3, 1.0, 13%, 7, 23, -10
CC(=O)N1CCc2cc(CNS(=O)(=O)c3ccccc3C(F)(F)F)ccc21
  ., 0.5, -0.5%, ., -15, .
Cc1cccc(N(C(=O)c2snc(C(N)=O)c2N)C(C(=O)NCc2ccccc2)c2ccncc2)c1 (stereo not given)
  1.4, 1.3, 5.9%, 11, 0, -1
Fc1cccc(Cl)c1-c1nnc2ccc(N3CCOCC3)nn12
  1.3, 0.1, ., 2, -6, 22
CC(C)C(CCN1C(=O)c2ccccc2C1=O)c1ccco1 (stereo not given)
  -3.0, -0.6, ., 1, -9, -8
CNC(=S)N(CCc1c(C)[nH]c2ccc(C)cc12)Cc1ccco1
  -0.7, 0.3, 1.4%, -14, 16, -6
O=CN1CCN(C(=O)c2ccccc2Cl)CC1
  -2.0, 1.0, -1.9%, 0, 14, 8
Cc1nn(-c2ccc(N3CCCCC3)nn2)c(C)c1CCC(=O)NCc1ccc(Cl)cc1
  ., 1.0, -0.5%, ., -10, .
CCC(C)c1ccccc1N1CC(C(=O)Nc2ccc(C)c(S(=O)(=O)N3CCOCC3)c2)CC1=O (stereo not given)
  1.4, 0.2, 1.8%, -2, 2, -3
COc1ccc(/C=N/n2c(=O)[nH]c3c([nH]c4ccc(Br)cc43)c2=O)cc1CN1CCOCC1
  2.4, -1.0, -1.4%, -25, -3, -3
COc1ccccc1-c1cc(C(=O)N2CCN(S(=O)(=O)c3ccc(C)cc3)CC2)[nH]n1
  -0.2, 0.8, 1.0%, -6, 33, -1
CCOC(=O)c1[nH]c(C)c(C(=O)NCc2ccc(OC)cc2)c1C
  1.0, 0.9, 0.8%, -2, 9, 2
CN=c1scc(C)n1/N=C/c1ccc(O)c(O)c1O
  52*, -0.2, -1.1%, ?, -11, 93*
Cn1ncc([N+](=O)[O-])c1C(=O)Nc1ccc(-c2ccccc2)cc1
  1.1, -0.6, 1.0%, -3, -1, -4
COc1ccc(NC(=S)NCc2ccc3c(c2)cc(C)n3C)cc1
  -3.5, 0.5, -1.3%, ?, 0, -8
COc1cc2oc(=O)cc(-c3ccc(-c4ccc(CO)cc4)cc3)c2c(OC)c1OC
  -1.0, 0.4, -0.3%, -3, -1, .
CC(=O)Nc1ccc(NC(=O)CSc2nnc(NC(=O)c3cccc(F)c3)s2)cc1
  -0.5, 0.2, -0.2%, ?, 31, -11
COCCCNc1ncnc2c1cnn2-c1ccc(C)cc1C
  0.3, -0.5, ., 0, -1, -16
CC1CCCN(S(=O)(=O)c2ccc([N+](=O)[O-])cc2)C1 (stereo not given)
  ?, ., 4.5%, 11, ., 24
COc1ccc(C(CCN2CCCC(C)C2)c2c(OC)cc(OC)c3c2OC(=O)CC3c2cc(OC)c(OC)c(OC)c2)cc1 (stereo not given)
  2.4, 0.9&-0.4, 2.2%, -6, 11&10, -23
CCOC(=S)SCC(=O)N1CCc2cc(OC)ccc2C1C1C(=O)CCCC1=O (stereo not given)
  -1.5, 0.9, 3.8%, -5, 23, -3
Cc1ccc(-c2nsc(SCC(=O)NCC3CCCO3)n2)cc1 (stereo not given)
  -2.7, 2.5, 2.6%, -2, 5, 6
Cc1ccc(NC(=O)C2CC(=O)N(c3ccc4c5c(cccc35)CC4)C2)cc1 (stereo not given)
  -2.4, -0.5, -1.6%, -4, 2, -19
COc1c(CC=C(C)C)cc(C2CC(=O)c3c(O)cc(O)cc3O2)c(CC=C(C)C)c1O (stereo not given)
  0.1, 2.1, -0.8%, 1, 5, 0
CCOC(=O)c1cnn(-c2ccccc2)c1NC(=O)c1ccccc1
  0.7, 2.2, 3.5%[38.3 µM], 3, 9, -4

# Complete entries, looked up by structure. Screens in order: D2 ag	TRPML1 agonist	PINK1 expr mod	Six1-Eya2 blk	TRPML1 blocker	D2 PAM
# Listed for COc1ccc(C(CCN2CCCC(C)C2)c2c(OC)cc(OC)c3c2OC(=O)CC3c2cc(OC)c(OC)c(OC)c2)cc1 (stereo not given) → 2.4	0.9&-0.4	2.2%	-6	11&10	-23
# Listed for COc1ccc(NC(=S)NCc2ccc3c(c2)cc(C)n3C)cc1 → -3.5	0.5	-1.3%	?	0	-8

# (list continues)
# Value order – D2 ag, TRPML1 agonist, PINK1 expr mod, Six1-Eya2 blk, TRPML1 blocker, D2 PAM
CC(C(=O)NCc1ccccc1)N(Cc1ccccc1Cl)C(=O)c1snc(C(N)=O)c1N (stereo not given)
  1.8, 1.5, -1.5%, -4, 6, 0
COc1ccc(CCNC(=O)c2c(O)nc3c(C)cccn3c2=O)cc1
  ., -0.9, 1.6%, ., -5, .
COc1ccc(NC(=O)NNC(=O)COc2ccc3cc(Br)ccc3c2)c(OC)c1
  0.8, 5.5, 3.8%, -2, 22, -5
O=S1(=O)CCN(CCCCc2ccccc2)CC1
  -3.4, -0.8, -1.1%, -23, 4, -4
COc1ccc(-c2noc(CN(C(C)C)S(=O)(=O)c3ccc(Br)cc3)n2)cc1
  ., 1.3, -0.3%, ., -10, .
Cc1cccc(C)c1NC(=O)/C(=C/c1ccco1)c1ccccc1
  -2.1, -0.4, 3.9%, -1, -1, 5
CCN(CC)S(=O)(=O)N1CCN(S(=O)(=O)N2CCOCC2)CC1
  2.8, 0.3, -0.4%, 1, 7, -1
CCOc1ccc(S(=O)(=O)NN2Cc3ccccc3C2=N)cc1
  -2.3, 2.4, -0.8%, 2, -5, -20
COc1cccc(-c2cc(C(=O)Nc3cc(C)on3)no2)c1
  -3.5, 0.1, 4.9%[38.3 µM], 25, -19, -4
O=C(CCn1c(=O)[nH]c2ccsc2c1=O)NCCc1ccc(Cl)cc1
  -0.2, 1.0, -4.3%, -2, 5, -6
COc1ccccc1C(=O)Nc1ccc2c(c1)OCCO2
  2.8, 1.9, -2.0%, 2, -9, -9
O=Cc1cn(CCC(=O)O)nc1-c1cccc(Br)c1
  -3.4, 0.5, -0.9%, 14, 15, 1
O=C(CC1C(=O)NCCN1CC(c1ccccc1)c1ccccc1)NCCc1cn[nH]c1 (stereo not given)
  -3.4, 1.4, 1.4%, -3, 5, -13
COc1cc(OC)cc(C(=O)NNC(=O)CCNS(=O)(=O)c2ccc(Br)cc2)c1
  1.6, 0.4, -0.1%, -9, 36, 0
Cc1ccccc1NC(=O)CSc1nnc(-c2cccs2)o1
  ., -1.0, 1.9%, ., 2, .
C/C(CS(=O)(=O)c1ccc(Cl)cc1)=N/NC(N)=S
  2.3, -0.2, 2.7%, 15, -5, 0
COc1ccc2cc(C(=O)NCc3ccccc3)c(=O)oc2c1
  1.5, ., 3.8%, -1, ., ?
O=C(CSc1nc2c(oc3ccccc32)c(=O)n1CC1CCCO1)NCc1ccc(F)cc1 (stereo not given)
  -5.7, -0.5, 1.8%, 11, -11, -18
O=C1CN(S(=O)(=O)c2cccc(Br)c2)CCN1
  -1.4, 1.3, -2.2%, -15, 8, -4
COC(=O)C1CCN(CC(=O)N(C)c2c(N)n(Cc3ccccc3)c(=O)[nH]c2=O)CC1
  -0.1, 0.4, -0.8%, -1, 30, -3
COc1cc(/C=N/O)ccc1Oc1ccc([N+](=O)[O-])cc1[N+](=O)[O-]
  -2.3, 4.3, 0.5%, -14, 38, 4
Cc1cccc(CCNc2ncnc3onc(-c4ccc(Cl)cc4)c23)c1
  ., 0.9, 3.1%, ., -18, .
C/C(=N\NC(=O)c1c(-c2ccccc2Cl)noc1C)c1cccc(NC(=O)C(C)C)c1
  -4.4, 0.7, 0.7%, 0, 13, -15
CCC(=O)c1ccc(OCC(O)CN(C)C2CCCCC2)cc1 (stereo not given)
  1.1, -0.2, -3.7%, 9, 1, -7
O=C(NNC(=O)C(c1ccccc1)c1ccccc1)c1ccccn1
  -12, -0.2, -0.8%, ?, 10, -32
CC1Cc2ccccc2N1C(=O)C(C)n1cc(C(F)(F)F)cc(Cl)c1=O (stereo not given)
  -1.9, 0.3, 1.9%, 9, 31, -2
O=C(NNc1cc(C(F)(F)F)ccc1Cl)c1ccc(=O)[nH]c1
  -5.1, -0.7, -1.4%, 8, -2, -2
COC(=O)CCC(=O)NC(=S)Nc1cc(Cl)ccc1Cl
  -2.8, 0.1, 5.3%[38.3 µM], 1, 10, -7
Cc1ccc(NC(=O)N(CCC#N)Cc2ccccc2)cc1
  -3.3, -0.7, 2.8%, -1, 6, -20
COc1ccc(S(=O)(=O)Nc2cccc(-c3ccc(N4CCCCCC4)nn3)c2)cc1OC
  0.4, -0.6&0.4, 1.1%&0.0%, -11, 23&12, -11
Cc1nn(CCOc2ccccc2Cl)c(C)c1[N+](=O)[O-]
  0.8, 1.3, 3.5%, 8, -6, -3
Cc1ccc(Nc2c([N+](=O)[O-])ccc3nonc23)cc1C
  5.6, ., 0.5%, ?, ., 13
Cc1nc2c(c(=O)c3ccccc3n2C)c(=O)n1-c1ccccc1
  -3.4, 0.2, 0.2%, ?, 15, -3
COc1ccc(NC(=O)CSc2nnc(CCC(=O)O)c(=O)n2N)cc1
  -6.4, -0.2, -0.4%, 1, -11, -5
O=[N+]([O-])c1ccc(/C=N\N2CCN(Cc3ccccc3Cl)CC2)cc1
  -2.3, -0.4, 3.6%, ?, 45, -21
Cc1ccc(NC(=O)c2ccccc2N2C(=O)C3C4C=CC(C5CC45)C3C2=O)cc1C (stereo not given)
  -7.5, 0.6, 5.5%, -8, -1, -18
O=C(CCNS(=O)(=O)c1ccc2[nH]c(=O)oc2c1)Nc1cccc(Br)c1
  -2.2, -0.6, 0.6%, -3, 12, -3
CCCCNC(=O)CS(=O)Cc1nc(-c2cccc(Cl)c2)oc1C (stereo not given)
  -6.3, 0.0, 0.4%, 5, -7, -10
O=C(COC(=O)c1c(F)cccc1F)c1ccc[nH]1
  -2.5, -0.2, -0.3%, -11, 8, -1
O=C(Nc1nc(-c2ccccc2)cs1)c1ccc2c(=O)n3c(nc2c1)CCCCC3
  0.3, 1.0, 2.7%, -2, 2, 2
CCCc1nnc(NC(=O)CCN2C(=O)c3ccccc3C2=O)s1
  -1.8, 0.0, -0.3%, 4, -5, 1

# Random draw from the library; 1% or so of the library scored in one or more.
